Yeast UUG start = alters start codon recognition fidelity in yeast; activity score, % at 18.7 µM; S. cerevisiae UUG-firefly luciferase reporter, luminescence/redox ratio; 350,000 compounds, 0.13% hits; AID 602363;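 active means replicate mean at a twofold rise or more, about +100% in these data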;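 further: firefly luciferase made from a UUG start codon reports start codon fidelity; reporter light over untreated wells divided by growth signal over untreated wells; some hits fall short of that in this replicate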
HIV Env fusion = inhibitors of HIV Env-mediated cell fusion; inhibition, % at 12.3 µM; HeLa-JRFL Env/CEM21 cell fusion, luciferase; 360,000 compounds, 1.1% hits;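 active means mean replicate inhibition score of at least 50 and every replicate individually at or above 50; inconclusive means only one of the two criteria met; inactive means mean below 50 and not all replicates reaching 50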;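 further: 0% = plate neutral controls and 100% = maraviroc near 300 nM; one replicate is shown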
* hit, by the source's call; ? = inconclusive; [ ] = remark or other dose. An excerpt. The share of hits here may be higher or lower than overall.

SMILES	Yeast UUG start	HIV Env fusion
C[C@H](CO)N1C[C@H](C)[C@H](CN(C)S(C)(=O)=O)OCCCC[C@H](C)Oc2ccc(NC(=O)Nc3ccc4c(c3)OCO4)cc2C1=O	-5	43[16.7 µM]
C[C@H]1CCCCO[C@@H](CN(C)C(=O)c2ccncc2)[C@@H](C)CN([C@@H](C)CO)C(=O)c2cc(NC(=O)NC3CCCCC3)ccc2O1	12	-3[16.7 µM]
COc1ccc(NC(=O)N(C)C[C@H]2Oc3cc(-c4ccc(C)cc4)ccc3S(=O)(=O)N([C@H](C)CO)C[C@@H]2C)cc1	0	6[16.7 µM]
COc1ccc(NC(=O)N(C)C[C@H]2OCCCC[C@H](C)Oc3ccc(NC(=O)Nc4ccc(F)cc4)cc3C(=O)N([C@H](C)CO)C[C@@H]2C)cc1	-5	-7[16.7 µM]
COc1ccccc1-c1cnc2c(c1)C(=O)N([C@@H](C)CO)C[C@H](C)[C@@H](CN(C)C(C)=O)O2	-8	1[16.7 µM]
COc1cccc(-c2cnc3c(c2)C(=O)N([C@@H](C)CO)C[C@@H](C)[C@H](CN(C)C(=O)CC2CC2)O3)c1	8	8[16.7 µM]
CCCN(C)C[C@H]1OCCCC[C@H](C)Oc2ccc(NC(=O)Nc3ccc4c(c3)OCO4)cc2C(=O)N([C@@H](C)CO)C[C@@H]1C	30	7[16.7 µM]
C[C@H]1CN([C@@H](C)CO)S(=O)(=O)c2ccc(-c3ccc(F)cc3)cc2O[C@H]1CN(C)C(=O)C1CCCCC1	13	33[16.7 µM]
CC(C)C(=O)Nc1ccc2c(c1)C(=O)N(C)[C@H]1CC[C@@H](CC(=O)NCCCN(C)C)O[C@@H]1CO2	-10	-16[16.7 µM]
C[C@@H]1CN([C@@H](C)CO)C(=O)c2cc(C3=CCCCC3)cnc2O[C@@H]1CN(C)C(=O)Nc1ccc(F)cc1	12	-14[16.7 µM]
CN1C(=O)c2cc(NC(=O)C3CCOCC3)ccc2OC[C@H]2O[C@@H](CC(=O)NCC3CC3)CC[C@H]21	-1	17[16.7 µM]
C[C@@H]1CCCCO[C@@H](CN(C)C(=O)Nc2cccc3ccccc23)[C@H](C)CN([C@H](C)CO)C(=O)c2cc(NC(=O)NC3CCCCC3)ccc2O1	-6	31[16.7 µM]
COc1ccc(CNC(=O)C[C@H]2C=C[C@H](NC(=O)c3cccc(F)c3)[C@@H](CO)O2)cc1	2	0[16.7 µM]
C[C@H](CO)N1C[C@H](C)[C@@H](CN(C)Cc2ccc(C(=O)O)cc2)Oc2ncc(-c3ccccc3)cc2C1=O	11	5[16.7 µM]
C[C@@H]1CN([C@H](C)CO)C(=O)c2cc(NC(=O)CCC(F)(F)F)ccc2O[C@@H](C)CCCCO[C@@H]1CN(C)C	9	-2[16.7 µM]
C[C@H](CO)N1C[C@H](C)[C@@H](CN(C)Cc2ccc(-c3ccccc3)cc2)Oc2ccc(NC(=O)C3CCCCC3)cc2CC1=O	19	2[16.7 µM]
Cc1noc(C)c1NC(=O)N(C)C[C@@H]1Oc2ccc(NC(=O)Nc3cccc4ccccc34)cc2CC(=O)N([C@@H](C)CO)C[C@@H]1C	13	-6[16.7 µM]
O=C(CCN1CCCCC1)N[C@@H]1CC[C@@H](CCNC(=O)c2cc(Cl)cc(Cl)c2)O[C@H]1CO	-2	-5[16.7 µM]
Cc1ccccc1S(=O)(=O)N1[C@H](CO)[C@@H](c2ccc(-c3ccccc3)cc2)[C@@H]1C#N	-14	16[16.7 µM]
O=C(Cc1ccncc1)NCC[C@H]1CC[C@@H](NS(=O)(=O)c2ccccc2Cl)[C@@H](CO)O1	-16	-3[16.7 µM]
CCCC(=O)Nc1ccc2c(c1)C(=O)N(C)[C@@H]1CC[C@@H](CC(=O)NCc3ccccc3)O[C@H]1CO2	-3	-2[16.7 µM]
C[C@@H]1CCCCO[C@H](CN(C)Cc2ccc3c(c2)OCO3)[C@@H](C)CN([C@H](C)CO)C(=O)c2cc(NC(=O)Nc3ccc(F)cc3)ccc2O1	-5	4[16.7 µM]
CCCC(=O)Nc1ccc2c(c1)C(=O)N(C)C[C@H](OC)[C@H](C)CN(C)[C@@H](C)CO2	-3	-7[16.7 µM]
Cc1noc(C)c1NC(=O)N(C)C[C@H]1OCCCC[C@H](C)Oc2ccc(NS(=O)(=O)c3ccccc3)cc2C(=O)N([C@@H](C)CO)C[C@H]1C	73	-12[16.7 µM]
CCCN(C)C[C@H]1Oc2ncc(C#Cc3ccc(OC)cc3)cc2C(=O)N([C@H](C)CO)C[C@H]1C	28	-1[16.7 µM]

Another view of 3 compounds above:
CCCN(C)C[C@H]1OCCCC[C@H](C)Oc2ccc(NC(=O)Nc3ccc4c(c3)OCO4)cc2C(=O)N([C@@H](C)CO)C[C@@H]1C
- Yeast UUG start: 30
- HIV Env fusion: 7[16.7 µM]
C[C@H]1CN([C@@H](C)CO)S(=O)(=O)c2ccc(-c3ccc(F)cc3)cc2O[C@H]1CN(C)C(=O)C1CCCCC1
- Yeast UUG start: 13
- HIV Env fusion: 33[16.7 µM]
CC(C)C(=O)Nc1ccc2c(c1)C(=O)N(C)[C@H]1CC[C@@H](CC(=O)NCCCN(C)C)O[C@@H]1CO2
- Yeast UUG start: -10
- HIV Env fusion: -16[16.7 µM]

As entered above:
Cc1noc(C)c1NC(=O)N(C)C[C@H]1OCCCC[C@H](C)Oc2ccc(NS(=O)(=O)c3ccccc3)cc2C(=O)N([C@@H](C)CO)C[C@H]1C in HIV Env fusion → -12[16.7 µM]
Cc1noc(C)c1NC(=O)N(C)C[C@@H]1Oc2ccc(NC(=O)Nc3cccc4ccccc34)cc2CC(=O)N([C@@H](C)CO)C[C@@H]1C in HIV Env fusion → -6[16.7 µM]

Next compounds.
SMILES	Yeast UUG start	HIV Env fusion
C[C@@H]1CN([C@@H](C)CO)C(=O)c2cc(C#CCc3ccccc3)cnc2O[C@@H]1CN(C)Cc1cccnc1	28	4[16.7 µM]
C[C@H]1CN([C@@H](C)CO)C(=O)c2cccc(NC(=O)Nc3ccc4c(c3)OCO4)c2O[C@@H]1CN(C)Cc1ccc(C(F)(F)F)cc1	3	?
O=C(C[C@H]1CC[C@@H](NC(=O)Nc2ccc3c(c2)OCO3)[C@@H](CO)O1)NCc1ccc(F)cc1	-12	7[16.7 µM]
C[C@@H]1CN([C@@H](C)CO)C(=O)c2cc(Br)cnc2O[C@@H]1CN(C)C(=O)C1CCOCC1	44	18[16.7 µM]
Cc1noc(C)c1NC(=O)N[C@H]1CC[C@@H](CC(=O)N2CCCCC2)O[C@@H]1CO	-6	-4[16.7 µM]
C[C@@H]1CN([C@H](C)CO)C(=O)c2cc(-c3ccccc3F)cnc2O[C@@H]1CN(C)C	-18	3[16.7 µM]
C[C@H](CO)N1C[C@H](C)[C@@H](CN(C)C(=O)OCc2ccccc2)OCc2cnnn2CCCC1=O	-4	9[16.7 µM]
O=C(C[C@@H]1CC[C@@H](NS(=O)(=O)c2ccccc2F)[C@H](CO)O1)NCCCN1CCOCC1	4	-2[16.7 µM]
C[C@@H]1CN([C@H](C)CO)C(=O)Cc2cc(NS(=O)(=O)c3cn(C)cn3)ccc2O[C@H]1CN(C)Cc1ccc(C(F)(F)F)cc1	-7	21[16.7 µM]
O=C(C[C@H]1C[C@@H]2c3cc(NC(=O)Cc4ccncc4)ccc3O[C@@H]2[C@H](CO)O1)NCc1cccnc1	11	0[16.7 µM]
CCN(C)C[C@@H]1Oc2cc(C#CCC3CCCC3)ccc2S(=O)(=O)N([C@@H](C)CO)C[C@H]1C	0	-5[16.7 µM]
Cc1noc(C)c1NC(=O)Nc1ccc2c(c1)C(=O)N([C@H](C)CO)C[C@H](C)[C@H](CN(C)C(=O)C1CCCCC1)OCCCC[C@H](C)O2	4	-12[16.7 µM]
COCC(=O)N(C)C[C@H]1Oc2ncc(-c3ccccc3C)cc2C(=O)N([C@@H](C)CO)C[C@H]1C	7	5[16.7 µM]
COCC(=O)N1C[C@H](C)[C@H](OC)CN(C)C(=O)c2cc(NS(C)(=O)=O)ccc2OC[C@@H]1C	-8	1[16.7 µM]
C[C@@H]1CCCCO[C@H](CN(C)C(=O)CCCN(C)C)[C@@H](C)CN([C@H](C)CO)C(=O)c2cc(NC(=O)C3CCCCC3)ccc2O1	-7	11[16.7 µM]
Cc1noc(C)c1S(=O)(=O)Nc1ccc2c(c1)C(=O)N([C@@H](C)CO)C[C@@H](C)[C@H](CN(C)S(=O)(=O)c1c(C)noc1C)OCCCC[C@H](C)O2	0	-14[16.7 µM]
C[C@@H]1CN([C@H](C)CO)C(=O)c2cc(C#CC3CC3)cnc2O[C@H]1CN(C)C(=O)Cc1ccccn1	5	-18[16.7 µM]
COc1ccc(NC(=O)Nc2cccc3c2O[C@H](CN(C)C(=O)Nc2ccc(C(F)(F)F)cc2)[C@@H](C)CN([C@@H](C)CO)C3=O)cc1	48	-65[16.7 µM]
C[C@H]1CN([C@@H](C)CO)C(=O)c2cc(Br)cnc2O[C@@H]1CN(C)C(=O)c1ccccn1	-17	-11[16.7 µM]
COc1cccc(S(=O)(=O)N[C@@H]2C=C[C@@H](CC(=O)NCc3ccccc3)O[C@@H]2CO)c1	-5	-2[16.7 µM]
COc1ccc(S(=O)(=O)N[C@@H]2C=C[C@H](CC(=O)NCc3ccccc3F)O[C@@H]2CO)cc1	-23	11[16.7 µM]
CO[C@@H]1CN(C)C(=O)c2cc(NS(=O)(=O)c3ccc(Cl)cc3)ccc2OC[C@H](C)NC[C@H]1C	19	-6[16.7 µM]
C[C@@H]1CCCCO[C@H](CN(C)S(C)(=O)=O)[C@@H](C)CN([C@@H](C)CO)C(=O)c2cc(NS(=O)(=O)c3cn(C)cn3)ccc2O1	1	3[16.7 µM]
O=C(N[C@H]1CC[C@@H](CCn2cc(-c3ccccn3)nn2)O[C@H]1CO)c1ccc(F)cc1	-25	-9[16.7 µM]
C[C@H](CO)N1C[C@H](C)[C@@H](CN(C)C(=O)Nc2ccc(F)cc2)Oc2c(NC(=O)C3CC3)cccc2C1=O	-7	-17[16.7 µM]
Additional results
SMILES	Yeast UUG start	HIV Env fusion
COc1ccc(CN(C)C[C@@H]2Oc3ccc(NC(=O)CCC(F)(F)F)cc3CC(=O)N([C@@H](C)CO)C[C@H]2C)cc1	-1	-15[16.7 µM]
Cc1noc(C)c1NC(=O)N(C)C[C@H]1Oc2ccc(N(C)C)cc2C(=O)N([C@@H](C)CO)C[C@@H]1C	-5	9[16.7 µM]
O=C(C[C@H]1C[C@H]2c3cc(NC(=O)Cc4ccncc4)ccc3O[C@H]2[C@@H](CO)O1)NCc1ccccc1	-16	2[16.7 µM]
O=C(C[C@@H]1C[C@@H]2c3cc(NC(=O)CC4CC4)ccc3O[C@@H]2[C@@H](CO)O1)NCc1ccccn1	-14	9[16.7 µM]
O=C(Cc1ccncc1)NCC[C@H]1CC[C@@H](NC(=O)C2CCCC2)[C@@H](CO)O1	-1	-2[16.7 µM]
C[C@@H]1CN([C@@H](C)CO)C(=O)c2cc(C#C[C@@H](C)O)cnc2O[C@H]1CN(C)C(=O)c1ccccc1F	-5	-39[16.7 µM]
COC(=O)C[C@H]1C[C@H]2c3cc(NC(=O)Nc4ccc(C(F)(F)F)cc4)ccc3O[C@H]2[C@H](CO)O1	-12	16[16.7 µM]
COc1ccc(S(=O)(=O)N(C)C[C@@H]2Oc3ccc(NC(=O)CCN4CCOCC4)cc3CC(=O)N([C@H](C)CO)C[C@@H]2C)cc1	3	14[16.7 µM]
O=C(C[C@@H]1C[C@H]2c3cc(NC(=O)NC4CCCC4)ccc3O[C@H]2[C@@H](CO)O1)NCc1ccccc1	-8	-12[16.7 µM]
COc1ccc(S(=O)(=O)N(C)C[C@H]2Oc3ccc(N(C)C)cc3CC(=O)N([C@H](C)CO)C[C@H]2C)cc1	16	5[16.7 µM]
C[C@@H]1CCCCO[C@@H](CN(C)S(=O)(=O)c2ccc(Cl)cc2)[C@H](C)CN([C@@H](C)CO)C(=O)c2cc(NS(C)(=O)=O)ccc2O1	15	4[16.7 µM]
COc1ccc(NC(=O)N(C)C[C@@H]2Oc3ccc(NC(=O)Nc4c(C)noc4C)cc3C(=O)N([C@H](C)CO)C[C@@H]2C)cc1	-31	-53[16.7 µM]
C[C@@H]1CCCCO[C@H](CN(C)Cc2ccc3c(c2)OCO3)[C@@H](C)CN([C@@H](C)CO)C(=O)c2cc(NC(=O)Nc3cccc4ccccc34)ccc2O1	0	-5[16.7 µM]
COc1ccc(NC(=O)Nc2ccc3c(c2)C(=O)N([C@H](C)CO)C[C@H](C)[C@H](CN(C)C(=O)CCC(F)(F)F)OCCCC[C@H](C)O3)cc1	1	47[16.7 µM]
COC(=O)[C@@]1(Cc2ccccc2CN=[N+]=[N-])N=C(c2ccc(OCCCO)cc2)O[C@H]1c1ccccc1N=[N+]=[N-]	1	18[16.7 µM]
Cc1ccc(S(=O)(=O)Nc2ccc3c(c2)C(=O)N([C@H](C)CO)C[C@@H](C)[C@H](CN(C)S(=O)(=O)c2ccc(C)cc2)O3)cc1	1	1[16.7 µM]
C[C@H]1CN([C@@H](C)CO)C(=O)c2cccc(NC(=O)c3cnccn3)c2O[C@@H]1CN(C)CC1CCCCC1	-6	-10[16.7 µM]
C[C@@H]1CCCCO[C@@H](CN(C)S(=O)(=O)c2cn(C)cn2)[C@H](C)CN([C@@H](C)CO)C(=O)c2cc(NS(=O)(=O)c3cn(C)cn3)ccc2O1	-1	0[16.7 µM]
Cc1ccc(S(=O)(=O)N(C)C[C@H]2Oc3ncc(C#CCC(C)C)cc3C(=O)N([C@@H](C)CO)C[C@H]2C)cc1	6	-4[16.7 µM]
C[C@@H]1CCCCO[C@H](CN(C)C(=O)Nc2ccc(F)cc2)[C@@H](C)CN([C@@H](C)CO)C(=O)c2cc(NC(=O)Cc3ccccc3)ccc2O1	-5	-116[16.7 µM]

Whole records, quoted from the list. Screens in order: Yeast UUG start, HIV Env fusion
Listed for `Cc1noc(C)c1NC(=O)N(C)C[C@H]1Oc2ccc(N(C)C)cc2C(=O)N([C@@H](C)CO)C[C@@H]1C` = -5, 9[16.7 µM]
Listed for `C[C@@H]1CN([C@@H](C)CO)C(=O)c2cc(C#C[C@@H](C)O)cnc2O[C@H]1CN(C)C(=O)c1ccccc1F` = -5, -39[16.7 µM]
